StopGo FLuc – Primary qHTS Assay for Foot and Mouth Disease Virus Antivirals against NCGC Sytravon and CBC Compound Libraries: Firefly Luciferase Signal | HEK cells with a luciferase reporter of 2A StopGo recoding | Potency, µM (top dose mostly 57.5 µM), for the others: top-dose signal change, negative = less light | 120,000 tested, 0.23% active | AID 1745856, 2022; active = well fitted falling curve with a large enough effect; inconclusive = small, poorly fitted or top-dose-only effect; inactive = no such curve, though single readings can be large or run the other way; further: nearly all actives have a fitted effect of over 60% in size; overnight with compound
StopGo RLuc – Primary qHTS Assay for Foot and Mouth Disease Virus Antivirals against NCGC Sytravon and CBC Compound Libraries: Renilla Luciferase Signal; HEK cells with a luciferase reporter of 2A StopGo recoding; Potency, µM (series often up to 57.5 µM), for the others: at the top dose signal change, negative = less light; 120,000 tested, 0.32% active; active means well fitted falling curve with a large enough effect; inconclusive means small, poorly fitted or top-dose-only effect; inactive means no such curve, though single readings can be large or run the other way; further: nearly all actives have a fitted effect of over 55% in size; overnight with compound
An asterisk follows results filed as active; ? = inconclusive; & = joins results of further samples; [ ] = remark or other dose. On the % scale 0 is the no-effect control and ±100 the full control effect; potency means the concentration at half of the fitted maximal effect.

Preview:
Every second line gives: StopGo RLuc, StopGo FLuc
Cc1ccc(C(=O)/C=C/c2cccc3ccccc23)o1
 : -9%[1.06 µM], 69%[activator]
Cc1ccc(C(=O)N(CCN(C)C)CC(=O)OC(C)(C)C)cc1F
 : -11%, 4%
O=C(CNC(=O)NC(Cc1c[nH]c2ccccc12)C(=O)O)Nc1ccc2ccccc2c1 (stereo not given)
 : 2%, 35%
Cc1ccc(NC(=O)N(Cc2ccc3c(c2)OCO3)C2CCN(Cc3ccccc3)CC2)cc1F
 : 32%[activator], -13%
c1cc(-c2nn[nH]n2)cs1
 : 7%, 9%
COc1ccc(CNC(=O)CSc2nnc(C)c3c(C)n(-c4ccccc4)nc23)c(OC)c1
 : -24%, -18%

Main list, previewed entries included:
Every second line gives: StopGo RLuc, StopGo FLuc
Cc1ccc(C(=O)/C=C/c2cccc3ccccc23)o1
 : -9%[1.06 µM], 69%[activator]
Cc1ccc(C(=O)N(CCN(C)C)CC(=O)OC(C)(C)C)cc1F
 : -11%, 4%
O=C(CNC(=O)NC(Cc1c[nH]c2ccccc12)C(=O)O)Nc1ccc2ccccc2c1 (stereo not given)
 : 2%, 35%
Cc1ccc(NC(=O)N(Cc2ccc3c(c2)OCO3)C2CCN(Cc3ccccc3)CC2)cc1F
 : 32%[activator], -13%
c1cc(-c2nn[nH]n2)cs1
 : 7%, 9%
COc1ccc(CNC(=O)CSc2nnc(C)c3c(C)n(-c4ccccc4)nc23)c(OC)c1
 : -24%, -18%
Cc1cc(C(=O)Cn2nc(C(=O)O)c3ccccc3c2=O)c(C)[nH]1
 : -9%, 64%[activator]
Cc1ccc(-c2csc(Nc3ccccc3)n2)c(C)c1
 : -23%, 154%[activator]
Cc1cccc(C(=O)N2CCC(c3nc4cc(C(F)(F)F)ccc4s3)CC2)n1
 : ?, ?
O=C(Nc1ccc(F)cc1)c1nc(SCc2ccccc2F)ncc1Cl
 : 8%, 35%[activator]
CCc1cc(=O)n(CC(=O)N2CCCCC2CC)c(-c2ccccc2)n1 (stereo not given)
 : 12%, -2%
Cc1cc(/C=C(/C#N)c2ccc(C(F)(F)F)cn2)cc(C)c1OCc1ccccn1
 : 9%, 4%
O=C(NCCc1ccccc1)C(=O)NCC(c1cccnc1)N1CCN(c2ccccc2F)CC1 (stereo not given)
 : ?, ?
N#C/C(=C/c1cccc(Br)c1)Sc1ccc(Br)cc1
 : 2%, 0%
COc1cc(C(=O)NCC(c2ccc(N(C)C)cc2)N2CCCC2)cc(OC)c1OC (stereo not given)
 : -1%, -10%
CC1CCN(S(=O)(=O)N2CCCC(c3nncn3C)C2)CC1 (stereo not given)
 : -11%, -9%
Cc1ccc(-n2cccc2C=O)cc1C
 : 3%, 11%
O=c1c2ccccc2nc(SCc2nc3ccccc3o2)n1C1CC1
 : 25%, 29%
C=CCNc1nc(C(=O)OC(C)C(=O)NCC(=O)Nc2c(C)cccc2C)cs1 (stereo not given)
 : -9%, 3%
Nc1nccnc1C(=O)NCCC12CC3CC(CC(C3)C1)C2
 : 9%, 43%[activator]
CC(CC(=O)O)CC(=O)NCCN1CCCCC1 (stereo not given)
 : 5%, -3%
Cc1ccc2oc3c(c(=O)c2c1)C(c1ccc(O)cc1)N(c1nc(C)c(C)s1)C3=O (stereo not given)
 : -11%, 6%
CCn1c2c(c(=O)[nH]c1=O)C(c1ccc(C)cc1)C1=C(COC1=O)N2 (stereo not given)
 : 16%, 14%
Cc1cc2cc(NS(=O)(=O)c3cc(F)cc(F)c3)ccc2[nH]1
 : 0%, 15%
CCN(C(=O)CSc1nc2ccccc2nc1Cc1cccc(OC)c1)c1cccc(C)c1
 : -17%, 0%
COc1cc(C(=O)N2CCN(CCc3ccncc3)CC2)cc(OC)c1OC
 : -14%, -19%
Cc1ccc(N2CC(C(=O)OCC(=O)Nc3ccc(C#N)c(Cl)c3)CC2=O)cc1 (stereo not given)
 : -18%, -3%
Cc1cccc(N2CCN(C(=O)Cn3ncc4c3-c3ccccc3OC4)CC2)c1C
 : -13%, -2%
Cc1ccc(C(=O)OCCCN(C)C)cc1
 : 6%, 0%
Cc1ccc([N+](=O)[O-])[c]2c1[O][Hg]2
 : ?, 2.8µM*
COC(=O)c1cc2oc3ccccc3c2n1CC(=O)Nc1ccc(OC)c(OC)c1OC
 : -9%, -13%
Cc1coc2c(C)c3oc(=O)c(CCC(=O)NCCc4ccccc4F)c(C)c3cc12
 : -4%, -8%
N#Cc1ccccc1CNc1ccc(F)c(Cl)c1
 : 14%, 56%[activator]
CCOC(=O)c1cnc2nc(NCc3cccc(Br)c3)[nH]n2c1=O
 : -15%, -6%
COc1ccc2cc(C(=O)NCCC(=O)N(C)C)c(C)nc2c1
 : -7%, 0%
Cc1ccc(NC(=O)CC(C)C)cc1
 : 13%, 77%[activator]
Cc1cccc2c(C(=O)O)cc(-c3cccnc3)nc12
 : 11%&26%, 34%&24%[activator]
CC(CC(=O)Nc1ccc(Br)cc1F)S(=O)(=O)c1ccc2c(c1)NC(=O)CO2 (stereo not given)
 : 4%, 5%
CCOc1ccc(CNC(=O)c2ncoc2-c2cccs2)cc1
 : 16%, 108%[activator]
O=C(Cc1c(F)cccc1Cl)N1CC=C(c2c[nH]c3ncccc23)CC1
 : -7%, -1%

Another view of some results above.
| SMILES | StopGo RLuc | StopGo FLuc |
| --- | --- | --- |
| Cc1ccc(C(=O)OCCCN(C)C)cc1 | 6% | 0% |
| Cc1ccc([N+](=O)[O-])[c]2c1[O][Hg]2 | ? | 2.8µM* |

Other records
Every second line gives: StopGo RLuc, StopGo FLuc
CCOC(=O)C(Cc1ccccc1)NC(=O)CCc1c(C)nc2c(c(C)nn2-c2ccc(C)c(C)c2)c1C (stereo not given)
 : -2%, -12%
C=CCNC(=O)c1cc2cc(Cl)ccc2nc1C
 : -6%, 2%
O=C(Cc1cccc(C(F)(F)F)c1)NC1(c2ccccc2)CCC1
 : 1%, 6%
c1ccc2cc(OCCSc3nc4ccccc4o3)ccc2c1
 : 0%, 4%
COC(=O)c1cc(NCc2ccc(C)cc2)ccc1N1CCOCC1
 : 0%, -2%
COc1ccc2cc3cc(C(=O)NCc4ccc(C)cc4)oc3nc2c1
 : 0%, -3%
Clc1ccc(-c2nc(NC3CCCC3)c3ccccc3n2)cc1
 : -11%, 5%
COc1ccc(CCNC(=O)Cn2nc(-c3ccc(OC)cc3)ccc2=O)cc1
 : 2%, 13%
CC(=O)c1ccc(NC(=O)C2CCN(S(=O)(=O)c3c(C)noc3/C=C/c3ccc(C)cc3)CC2)cc1
 : -7%, -2%
COc1ccc2c(c1)CNC2CS(=O)(=O)NCC(C)C (stereo not given)
 : 102%[activator], 23%
O=C(NCc1ccc2c(c1)OCO2)c1nc(S(=O)(=O)Cc2ccccc2F)ncc1Cl
 : -26%, -13%
Cc1ccc(C(C)C)cc1OCC(=O)NCc1ccc(Cn2cccn2)cc1
 : 11%, 9%
Cc1cc(NC(=O)NCC(c2ccco2)N(C)C)no1 (stereo not given)
 : -4%, 11%
CC1=C(c2ccc(C)c(C)c2)S(=O)(=O)N=C1N1CCC(C(=O)Nc2cccc(F)c2)CC1
 : 8%, -10%
CCn1c(SCC(=O)NCc2ccccc2CN2CCOCC2)nnc1-c1cccc(C)c1
 : 6%, -1%
COc1ccc(NC(=O)Cn2cccc2-c2nc(-c3ccc4c(c3)OCO4)no2)c(OC)c1
 : 17%, 171%[activator]
Cc1cc(Cl)cc(Cl)c1OCC(=O)Nc1cccc(NC(=O)c2ccco2)c1
 : 16%, 51%[activator]
C/C(=N/Nc1ccc(S(=O)(=O)Nc2ccc(C)cc2C)cc1[N+](=O)[O-])c1ccco1
 : ?, ?
O=C(COC(=O)c1ccccc1OCc1ccccc1Cl)c1ccc(C2CCCCC2)cc1
 : 5%, -7%
Cn1c(=O)c(=O)n(C)c2cc(N3CCCC3)c(NC(=O)c3ccccc3F)cc21
 : -10%, -9%
Cc1cccc(CS(=O)(=O)Cc2ccc(C#N)cc2)c1
 : -19%, -10%
CC1CCCN(c2ccc(C(=O)O)cc2NS(=O)(=O)c2ccc(Br)s2)C1 (stereo not given)
 : 6%, -12%
COc1ccc(N2CCN(C(CNC(=O)c3ccc(OC)c(OC)c3)c3cccnc3)CC2)cc1 (stereo not given)
 : -11%, -18%
O=C(CCc1ncc(-c2ccccc2)o1)N1CCN(C(=O)C2CC2)CC1
 : -7%, 9%
Cc1ccc(S(=O)(=O)N2CCC(C(=O)OC(C)C(=O)N3CCCCCC3)CC2)cc1C (stereo not given)
 : 8%, 14%
Cn1c(SCC(N)=O)nc2c([nH]c3ccccc32)c1=O
 : -2%, 1%
CN(C)S(=O)(=O)c1ccc2oc(SCCOc3ccccc3F)nc2c1
 : ?, ?
CC(=O)c1sc(N2C(=O)c3oc4ccccc4c(=O)c3C2c2ccc(C)cc2)nc1C (stereo not given)
 : 13%, -2%
CCCCNc1nc2c(c(=O)n(C)c(=O)n2C)n1CC(O)COc1ccccc1C (stereo not given)
 : 0%&-6%, 3%&-15%
CCn1cc(C(=O)N2CCN(c3ccccc3)CC2)c(=O)c2cc(S(=O)(=O)N3CCCC3)ccc21
 : 19%, -6%
CCN(Cc1ccccc1)C(=O)c1sc2nc3n(c(=O)c2c1C)CCCC3
 : -20%, -34%
Cc1ccc2c(Br)cc(Br)c(O)c2n1
 : -17%, -18%
Cc1ccccc1Cn1c(CN(C)Cc2ccccc2)nc2c1c(=O)n(C)c(=O)n2C
 : -15%, -12%
CCOc1ccccc1NC(=O)C(=O)c1cc(C)n(-c2ccc(F)cc2)c1C
 : 16%, 21%
O=C(CCc1ncc(-c2c(F)cccc2F)o1)Nc1cccc(F)c1
 : 4%, 29%
CCOC(=O)c1ccc(NC(=O)c2cc3c(n(-c4ccc(C)cc4)c2=O)CC(C)(C)CC3=O)cc1
 : -12%, -11%
CSc1ccc(/C=N/NC(=O)C2CC2)cc1
 : 22%, 111%[activator]
Fc1ccc(C=Nc2cccc3c(N=Cc4ccc(F)cc4)cccc23)cc1
 : -13%, 31%[activator]
Cc1ccc(N2CCN(S(=O)(=O)c3ccc4oc(=O)c5ncn(C)c5c4c3)CC2)c(C)c1
 : -4%, 0%
CCc1ccc(OCC(=O)N(Cc2ccc(Cl)cc2)C2CCS(=O)(=O)C2)cc1 (stereo not given)
 : 1%, -1%
COc1ccc(CCNC(=O)CCCCn2c(=O)c3ccccc3n(Cc3ccc(F)cc3Cl)c2=O)cc1OC
 : 1%, -4%
CCn1c(SCc2coc(-c3cccs3)n2)nnc1C1CC1
 : 7%, 0%
COc1cccc(Nc2nc(-c3cccc(N4C(=O)c5ccccc5C4=O)c3)cs2)c1
 : -11%, 75%[activator]
CCCC1CCC(c2ccc(C(=O)Oc3ccc(C)nc3)cc2)CC1 (stereo not given)
 : 2%, 3%
CC(NC(=O)c1csc2ccccc12)C1CC2CCC1C2 (stereo not given)
 : 36%[activator], 0%
Cn1cc(S(=O)(=O)N2CCCCCC2)cc1C(=O)NCc1ccccc1Cl
 : 90%[activator], -10%
CCC(C)NC(=O)CN1C(=O)N(c2ccc(C(C)C)cc2)S(=O)(=O)c2ccccc21 (stereo not given)
 : -3%, 2%
Cc1cc(C(=O)OCC(=O)NCC(F)(F)F)c2ccccc2n1
 : -9%, -13%
O=Cc1ccc(OCc2ccc(Cl)cc2Cl)c(Br)c1
 : -1%, 126%[activator]
Cc1ccccc1-c1nc2c3c4c(sc3ncn2n1)CN(C)CC4
 : 14%, 29%
O=[N+]([O-])c1ccccc1S(=O)(=O)Nc1ccccc1
 : 246%[activator], 0%
CCOc1ccc(CCNC(=O)CSc2cc(=O)n(C)c3ccccc23)cc1OCC
 : -1%, 6%
Cc1nc(-c2ccccc2)sc1CCNS(=O)(=O)c1ccccc1
 : 234%[activator], 97%[activator]
CC(C)(C)c1ccc(OCc2nn3c(-c4cccnc4)nnc3s2)cc1
 : ?, ?
CC(C)CN1CCC(NC(=S)NCc2ccc(F)cc2)CC1
 : 0%, -3%
COc1ccc(OC(=O)c2cc3cc(Cl)ccc3oc2=O)cc1
 : -5%, 6%
Cc1cc(C(=O)NC(C)c2ccc(F)c(F)c2)c2cnn(C(C)C)c2n1 (stereo not given)
 : 1%, -5%
Cc1ccc(NC(=O)[C@H](Cc2ccccc2)N2Cc3ccccc3C2=O)cc1F
 : 20%, -3%
Cc1c(CNCCc2ccc(S(N)(=O)=O)cc2)c(C(=O)O)c(C)n1Cc1ccc(Cl)cc1
 : 0%, 0%
CC(C)(C)c1cc(C=NCc2ccccc2)cc(C(C)(C)C)c1O
 : 20%, 16%

The list continues:
Every second line gives: StopGo RLuc, StopGo FLuc
COc1ccc(-c2ccc(C#N)c(SCC(=O)Nc3ccccc3Cl)n2)cc1
 : -6%, 1%
COc1cc(C(C)N)ccc1OCC(F)(F)F (stereo not given)
 : 4%, 12%
Cc1cccc(NC(=O)CCc2c(C)nc3nc(CNC(=O)c4cccc(F)c4)nn3c2C)c1
 : -3%, -6%
Cc1ccc(C2CC(=O)Nc3c2c(C)nn3-c2ccc3nncn3n2)cc1C (stereo not given)
 : 7%, 4%
Cn1c(=O)c2c(n3c4ccccc4nc13)NC(=O)CC2c1cccc(F)c1 (stereo not given)
 : -12%, -10%
COC(=O)N[C@H](C(=O)N[C@@H](Cc1ccccc1)[C@@H](O)CN(Cc1ccc(-c2ccccn2)cc1)NC(=O)[C@@H](NC(=O)OC)C(C)(C)C)C(C)(C)C
 : -2%, -5%[11.5 µM]
Cc1c(C(=O)NCc2ccccc2)oc2c1-c1[nH]ncc1CC2
 : 9%, 15%
CN(c1ccccc1)c1ccc(/C=N/Nc2ccc(S(N)(=O)=O)cc2[N+](=O)[O-])cc1
 : -10%, 21%
O=C(CSc1ncnc2ccccc12)Nc1cc(C(F)(F)F)cc(C(F)(F)F)c1
 : -16%, 4%

Rows are unselected; overall some 0.53% were active at least once.
